# Source: PubChem
# Vaccinia stage = Vaccinia orthopox stage-specific inhibition | activity change (mCherry), % (concentration not given with the values) | actives 0.01% (n = 89,000) | Vaccinia-infected cells, mCherry/Venus stage reporter fluorescence; stronger effect = lower value; some inactives read as strong as hits | AID 1053133;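 active means mCherry past -33% and 40 or more points under the early reporter, replicates agreeing; inconclusive means past -33% without that gap or agreement; tested in A549 cells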;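 further: scaled between vehicle wells and reference inhibitor wells; 23 nL library stock went into each well; one replicate is shown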
# Vaccinia stage Venus = further read-out of Vaccinia stage, marked with its call; activity change (Venus), %; measured here: Venus reporter, other viral stage;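 negative = less Venus signal; first of two replicates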
# An asterisk follows results filed as active; ? = inconclusive; · = no result given; & = joins results of further samples. These rows are one share of the data. The share of hits here may be higher or lower than overall.
SMILES,Vaccinia stage,Vaccinia stage Venus
CCNC(=O)C[C@H]1CC[C@@H]2[C@@H](COc3ccc(NC(=O)c4ccc(F)c(F)c4)cc3C(=O)N2C)O1,-1,2
C[C@@H]1CN([C@@H](C)CO)C(=O)c2cc(NC(=O)Nc3ccc(C(F)(F)F)cc3)ccc2O[C@@H]1CN(C)C(=O)Nc1ccc2c(c1)OCO2,-27,-8
C[C@@H]1CCCCO[C@@H](CN(C)S(=O)(=O)c2ccccc2)[C@@H](C)CN([C@H](C)CO)C(=O)c2cc(NC(=O)Nc3ccc(C(F)(F)F)cc3)ccc2O1,1,-2
C[C@@H]1CN([C@H](C)CO)C(=O)Cc2cc(NS(C)(=O)=O)ccc2O[C@H]1CN(C)C,10,10
C[C@@H]1CN([C@H](C)CO)C(=O)c2cc(C#Cc3ccccc3)cnc2O[C@H]1CN(C)C(=O)c1ccccc1F,-32,-25
C[C@H](CO)N1C[C@H](C)[C@H](CN(C)Cc2ccccc2)Oc2ccc(NC(=O)Nc3ccccc3)cc2CC1=O,-26,-18
COCCOC(=O)N1C(=O)[C@@]2(c3cc(C#CCC(C(=O)OC)C(=O)OC)ccc31)[C@H](C(=O)N1CCc3cc(OC)c(OC)cc3C1)[C@H]1C(=O)O[C@H](c3ccccc3)[C@H](c3ccccc3)N1[C@@H]2c1ccc(O)cc1,2,1
C[C@H](CO)N1C[C@H](C)[C@@H](CN(C)S(=O)(=O)c2cn(C)cn2)Oc2ccc(NS(=O)(=O)c3ccccc3)cc2CC1=O,22,21
COc1ccc(S(=O)(=O)N(C)C[C@@H]2Oc3c(NC(=O)Nc4ccc(C(F)(F)F)cc4)cccc3C(=O)N([C@@H](C)CO)C[C@H]2C)cc1,-7,-12
COc1cccc(-c2cn(CC[C@@H]3CC[C@H](NC(C)=O)[C@@H](CO)O3)nn2)c1,9,6
C[C@@H]1CN([C@H](C)CO)C(=O)c2cc(NS(=O)(=O)c3cccs3)ccc2O[C@@H]1CN(C)C(=O)NC1CCCCC1,5,3
CCC(=O)N1CC2(C1)[C@H](c1ccccc1)[C@H](CO)N2C(=O)c1ccccc1,2,2
CCCNC(=O)N1CC2(CN(S(C)(=O)=O)C2)c2c(n(C)c3cc(OC)ccc23)[C@H]1CO,7,-4
COc1ccc(CN(C)C[C@@H]2Oc3ccc(NC(=O)Nc4ccc(C(F)(F)F)cc4)cc3CC(=O)N([C@H](C)CO)C[C@H]2C)cc1,-29,-5
O=S(=O)(c1ccc(F)cc1)N1CCCCN2[C@H](C1)[C@@H](c1ccc(C#CC3CC3)cc1)[C@@H]2CO,-6,-5
COC(=O)C[C@@H]1CC[C@@H]2[C@H](COc3ccc(NC(=O)NC(C)C)cc3C(=O)N2C)O1,2,5
C[C@H]1CN([C@@H](C)CO)C(=O)c2cc(NC(=O)Cc3ccccc3)ccc2O[C@@H]1CN(C)S(=O)(=O)c1cn(C)cn1,-1,3
C[C@H]1CN([C@@H](C)CO)C(=O)c2cc(-c3ccccc3)cnc2O[C@H]1CN(C)C,22,10
C[C@H]1CN([C@@H](C)CO)C(=O)c2cccc(NC(=O)c3ccncc3)c2O[C@H]1CN(C)C(=O)Nc1ccc(C(F)(F)F)cc1,-9,-6
COc1ccc2c3c([nH]c2c1)[C@H](CO)N(C(=O)Nc1ccc(F)cc1)CC31CCN(S(=O)(=O)c2cccc(F)c2)CC1,?,·
O=C(C1=C[C@@H](c2ccc(C(F)(F)F)cc2)C[C@@H](OCc2ccc(CO)cc2)O1)N1CCOCC1,2,16
CCCN1[C@@H]2Cn3c(ccc(-c4cccc(OC)c4)c3=O)[C@H]1[C@@H](C(=O)OC)[C@@H]2CO,11,7
C[C@@H]1CN([C@H](C)CO)C(=O)c2cc(C#CCN(C)C)cnc2O[C@H]1CN(C)C(=O)c1cccnc1,17,4
COc1ccccc1C(=O)N1C[C@@H]2[C@H](c3ccccc31)[C@H](CO)N2CC1CCCC1,-20,-15
O=C(C[C@@H]1CC[C@@H]2NC[C@@H](O)COC[C@H]2O1)NCCN1CCCC1,6,3
O=C(O)C[C@@H]1C[C@H]2c3cc(NC(=O)Nc4ccc(F)cc4)ccc3O[C@H]2[C@H](CO)O1,10,15
C[C@H](CO)N1C[C@H](C)[C@@H](CN(C)C)Oc2c(NS(=O)(=O)c3ccc(Cl)cc3)cccc2C1=O,14,1
C[C@@H]1CCCCO[C@@H](CN(C)C(=O)Cc2ccccc2)[C@H](C)CN([C@H](C)CO)C(=O)c2cc(NC(=O)Cc3ccccc3)ccc2O1,-29,-23
C[C@@H]1CN([C@H](C)CO)S(=O)(=O)c2ccc(-c3ccc(C#N)cc3)cc2O[C@@H]1CN(C)C(=O)Nc1cc(F)ccc1F,-32,-24
C[C@@H]1CN([C@H](C)CO)C(=O)c2cccc(NC(=O)c3ccncc3)c2O[C@@H]1CN(C)Cc1ccc(-c2ccccc2)cc1,-22,-19
C[C@@H]1CN([C@H](C)CO)C(=O)c2cc(NC(=O)Nc3ccc(F)cc3)ccc2O[C@@H](C)CCCCO[C@@H]1CN(C)C(=O)NC1CCCCC1,15,18
C[C@@H]1CN([C@H](C)CO)C(=O)c2cc(NC(=O)Nc3cccc4ccccc34)ccc2O[C@@H](C)CCCCO[C@H]1CN(C)S(=O)(=O)c1ccc(Cl)cc1,10,3
COc1ccc2c3c([nH]c2c1)[C@H](CO)NCC31CN(Cc2cc(F)ccc2F)C1,-10,-1
C[C@H](CO)N1C[C@H](C)[C@@H](CN(C)Cc2ccc(C(=O)Nc3ccccc3N)cc2)Oc2ccc(NS(=O)(=O)c3ccc(F)cc3)cc2CC1=O,8,5
CO[C@@H]1CN(C)C(=O)c2ccc(NC(=O)c3ccc(F)cc3)cc2OC[C@H](C)NC[C@H]1C,-5,-2
C[C@H](CO)N1C[C@H](C)[C@H](CN(C)C(=O)Cc2ccccc2)OCCCC[C@H](C)Oc2ccc(NC(=O)Nc3cccc4ccccc34)cc2C1=O,0,2

# Exported with two lines to a compound: entries from further up
# Value order – Vaccinia stage, Vaccinia stage Venus
> C[C@@H]1CN([C@H](C)CO)C(=O)c2cc(NC(=O)Nc3ccc(F)cc3)ccc2O[C@@H](C)CCCCO[C@@H]1CN(C)C(=O)NC1CCCCC1
 : 15, 18
> C[C@@H]1CN([C@H](C)CO)C(=O)c2cc(NC(=O)Nc3cccc4ccccc34)ccc2O[C@@H](C)CCCCO[C@H]1CN(C)S(=O)(=O)c1ccc(Cl)cc1
 : 10, 3
> COc1ccc2c3c([nH]c2c1)[C@H](CO)NCC31CN(Cc2cc(F)ccc2F)C1
 : -10, -1
> C[C@H](CO)N1C[C@H](C)[C@@H](CN(C)Cc2ccc(C(=O)Nc3ccccc3N)cc2)Oc2ccc(NS(=O)(=O)c3ccc(F)cc3)cc2CC1=O
 : 8, 5
> CO[C@@H]1CN(C)C(=O)c2ccc(NC(=O)c3ccc(F)cc3)cc2OC[C@H](C)NC[C@H]1C
 : -5, -2

# (cont.)
SMILES,Vaccinia stage,Vaccinia stage Venus
COCC(=O)Nc1ccc2c(c1)C(=O)N(C)[C@@H]1CC[C@H](CC(=O)N3CCc4ccccc4C3)O[C@H]1CO2,-7,0
CC(C)NC(=O)NCC[C@H]1CC[C@@H](NC(=O)Nc2ccccc2)[C@H](CO)O1,-7,-6
C[C@H]1CN([C@@H](C)CO)C(=O)Cc2cc(NC(=O)Cc3ccccc3)ccc2O[C@@H]1CN(C)S(=O)(=O)c1ccccc1,-4,-2
C[C@H]1CN([C@@H](C)CO)S(=O)(=O)c2ccc(-c3ccccc3)cc2O[C@H]1CN(C)Cc1ccccn1,-5,-9
CC(C)NC(=O)N1CC(=O)N2[C@H](C1)[C@H](c1ccc(C#CCN(C)C)cc1)[C@@H]2CO,2,0
C[C@@H]1CN([C@H](C)CO)C(=O)c2cc(NC(=O)Nc3ccc(F)cc3)ccc2O[C@@H]1CN(C)Cc1ccc(Cl)c(Cl)c1,?,·
COCCNC(=O)C[C@@H]1CC[C@H]2[C@@H](COc3ccc(NC(=O)COC)cc3C(=O)N2C)O1,8,14
CO[C@@H](CN(C)Cc1cc(F)ccc1F)[C@@H](C)CN([C@@H](C)CO)S(=O)(=O)c1ccc(F)cc1,-10,-6
C[C@@H]1CN([C@@H](C)CO)C(=O)c2cc(NC(=O)NC3CCCCC3)ccc2O[C@@H](C)CCCCO[C@@H]1CN(C)S(=O)(=O)c1cn(C)cn1,20,11
COc1ccc(CN(C)C[C@H]2OCCCC[C@@H](C)Oc3ccc(NC(=O)Nc4ccc(F)cc4)cc3C(=O)N([C@H](C)CO)C[C@@H]2C)cc1,-23,-15
C[C@@H]1CN([C@@H](C)CO)S(=O)(=O)c2ccc(C#CCN(C)C)cc2O[C@H]1CN(C)Cc1ccc2c(c1)OCO2,?,·
C[C@@H]1CN([C@@H](C)CO)C(=O)c2cc(NC(=O)Nc3ccccc3)ccc2O[C@@H](C)CCCCO[C@@H]1CN(C)C(=O)Nc1ccc2c(c1)OCO2,6,12
O=C(C[C@H]1CC[C@H]2[C@@H](COC[C@@H](O)CN2CCC(F)(F)F)O1)N1CCC(Cc2ccccc2)CC1,-25,-18
Cc1noc(C)c1S(=O)(=O)Nc1cccc2c1O[C@H](CN(C)C(=O)Nc1ccc(F)cc1)[C@H](C)CN([C@@H](C)CO)C2=O,-2,7
CC(C)C#Cc1ccc([C@H]2[C@H](CO)N3CCCCN(C(=O)Nc4ccccc4)C[C@@H]23)cc1,?,·
O=C(C[C@@H]1C[C@H]2c3cc(NS(=O)(=O)c4ccc(F)cc4)ccc3O[C@H]2[C@H](CO)O1)NCc1cc(F)ccc1F,-26,-18
CC(C)NC(=O)N(C)C[C@H]1Oc2ccc(NC(=O)Nc3ccc4c(c3)OCO4)cc2CC(=O)N([C@@H](C)CO)C[C@@H]1C,9,0
O=C(c1ccccc1F)N1CC(=O)N2[C@@H](CO)[C@H](c3ccc(-c4ccc(F)cc4)cc3)[C@@H]2C1,10,-9
CCCC(=O)Nc1ccc2c(c1)OC[C@@H](C)N(C(=O)c1cnccn1)C[C@@H](C)[C@@H](OC)CN(C)C2=O,5,12
CC(C)NC(=O)N(C)C[C@@H]1Oc2ccc(NC(=O)CCCCCC(=O)Nc3ccccc3N)cc2C(=O)N([C@@H](C)CO)C[C@@H]1C,20,11
C[C@H]1CN([C@@H](C)CO)C(=O)c2cc(NS(=O)(=O)c3cn(C)cn3)ccc2O[C@H]1CN(C)Cc1ccc2c(c1)OCO2,8,7
C[C@@H]1CN([C@@H](C)CO)C(=O)c2cc(NC(=O)Nc3ccc4c(c3)OCO4)ccc2O[C@@H](C)CCCCO[C@H]1CN(C)Cc1ccc2c(c1)OCO2,-30,-23
O=C(Nc1ccc(C(F)(F)F)cc1)Nc1ccc2c(c1)[C@H]1C[C@H](CC(=O)N3CCc4ccccc4C3)O[C@H](CO)[C@H]1O2,-23,-13
COc1ccc2c3c(n(C)c2c1)[C@@H](CO)N(Cc1ccncc1)CC31CCN(C(=O)C2CCCCC2)CC1,-13,0
C[C@H]1CN([C@@H](C)CO)C(=O)c2cc(NC(=O)Nc3ccc(C(F)(F)F)cc3)ccc2O[C@@H]1CN(C)C,11,6
CC(C)CC#Cc1ccc([C@@H]2[C@@H](CO)N3C(=O)CN(C(=O)c4ccccn4)C[C@H]23)cc1,-14,-12
C[C@@H]1CCCCO[C@@H](CN(C)Cc2ccncc2)[C@H](C)CN([C@H](C)CO)C(=O)c2cc(NC(=O)c3ccncc3)ccc2O1,19,2
COC(=O)[C@H]1[C@H](CO)[C@H]2Cn3c(cccc3=O)[C@H]2N1CC1CC1,20,12
COc1ccc(CN(C)C[C@@H]2Oc3ccc(NS(=O)(=O)c4ccc(C)cc4)cc3C(=O)N([C@H](C)CO)C[C@H]2C)cc1,-2,-6
COc1ccc(S(=O)(=O)N(C)C[C@H]2OCCCC[C@H](C)Oc3ccc(NC(=O)CCCN(C)C)cc3C(=O)N([C@@H](C)CO)C[C@H]2C)cc1,29,-4
COc1ccc(NC(=O)N(C)C[C@@H]2Oc3ccc(NC(=O)Nc4ccc(F)cc4)cc3CC(=O)N([C@H](C)CO)C[C@@H]2C)cc1,4,1
COc1cccc(NC(=O)N2CC(=O)N3[C@H](CO)[C@H](c4ccc(C#CC5CCCCC5)cc4)[C@H]3C2)c1,-17,-17
C[C@@H]1CN([C@H](C)CO)C(=O)c2cc(NC(=O)Nc3ccc(C(F)(F)F)cc3)ccc2O[C@@H](C)CCCCO[C@H]1CN(C)Cc1ccc(C(=O)O)cc1,18,5
O=C(Nc1ccc(Cl)cc1)N1C[C@H]2[C@@H](c3ccccc31)[C@@H](CO)N2CC1CCCC1,-27,-20
O=C(C[C@@H]1C=C[C@H](NC(=O)c2ccc3c(c2)OCO3)[C@H](CO)O1)NCc1ccc(Cl)cc1,-2,-4
CC(C)OC(=O)N(C)C[C@H]1OCc2cnnn2CCCC(=O)N([C@H](C)CO)C[C@H]1C,8&1,2&2
CCCC(=O)Nc1ccc2c(c1)OC[C@@H](C)N(CC1CCCC1)C[C@H](C)[C@H](OC)CN(C)C2=O,10,10
O=C(C[C@H]1CC[C@H]2[C@@H](COC[C@@H](O)CN2Cc2nccs2)O1)NCc1ccc(Oc2ccccc2)cc1,?,·
COC(=O)C[C@H]1C[C@H]2c3cc(NS(C)(=O)=O)ccc3O[C@H]2[C@H](CO)O1,7,6
CC(C)NC(=O)Nc1ccc2c(c1)C(=O)N([C@@H](C)CO)C[C@@H](C)[C@H](CN(C)Cc1ccc(C(=O)O)cc1)OCCCC[C@@H](C)O2,37,11

# Compounds above with an NH in an aromatic ring (2):
SMILES,Vaccinia stage,Vaccinia stage Venus
COc1ccc2c3c([nH]c2c1)[C@H](CO)N(C(=O)Nc1ccc(F)cc1)CC31CCN(S(=O)(=O)c2cccc(F)c2)CC1,?,·
COc1ccc2c3c([nH]c2c1)[C@H](CO)NCC31CN(Cc2cc(F)ccc2F)C1,-10,-1
